VACV Venus inh – vaccinia inhibition (Venus reporter) | Vaccinia virus Venus reporter expression, fluorescence | Potency, µM (titrated, usually from 36.5 µM), for the others: top-dose activity change, negative = inhibition, most hits filed as inhibitors | AID 720580 | 330,000 compounds, 0.46% hits; active means well fitted inhibition curve with a large enough effect; inconclusive means small, poorly fitted or top-dose-only effect; inactive means no such curve, though single readings can be large or run the other way; tested in A549 cells; also: nearly all actives have a fitted effect of over 30% in size; inactives centre near -10
VACV mCherry inh – inhibitors of vaccinia virus infection (mCherry reporter signal); 310,000 compounds, 0.63% hits; Vaccinia virus mCherry reporter infection, fluorescence; about a quarter of the inactives have no number; Potency, µM (titrated, usually from 36.5 µM), for the others: at the top dose activity change, negative = inhibition, hits mostly inhibitors; AID 720579; active = well fitted inhibition curve with a large enough effect; inconclusive = small, poorly fitted or top-dose-only effect; inactive = no such curve, though single readings can be large or run the other way; tested in A549 cells; also: nearly all actives have a fitted effect of over 35% in size; inactives centre near -10
* hit, by the source's call; i = inactive; ? = inconclusive; · = no result given; & = joins results of further samples; [ ] = another dose, or the depositor's remark. % is scaled to controls: 0 for no effect and ±100 for the full control effect; potency is read from the fitted curve at half-maximal effect.

SMILES | VACV Venus inh | VACV mCherry inh
CC(C)OC(=O)c1c(N)n(CC2CCCO2)c2nc3ccccc3nc12 (centres undefined) | -18.2% | -24.6%
CCN(CCCNC(=O)c1cc2cc3ccc(OC)cc3nc2s1)c1cccc(C)c1 | -18.0% | -22.2%
CCSc1nc2ccc(OC)cc2cc1C#N | -3.3% | -13.8%
Cc1cccc(C)c1-n1cccc1/C=C1/C(=N)N2C(=NC1=O)SN=C2S(C)(=O)=O | 8.6% | -11.8%
COc1cccc(-c2[nH]c3c(c2-c2c(-n4cccc4)n(C)c(=O)[nH]c2=O)c(=O)[nH]c(=O)n3C)c1 | 11.6% | -4.8%
COc1cccc(-c2nnc(SCC(=O)NCc3ccc4c(c3)OCO4)n2Cc2ccco2)c1 | -1.7% | ·
COc1ccc(S(=O)(=O)N2CCCC(C(=O)NC3CCCC3)C2)cc1OC (centres undefined) | 3.5% | -7.0%
COC(=O)C1(C)NC(c2cccs2)C2C(=O)N(c3ccc(F)cc3)C(=O)C21 (centres undefined) | -3.7% | -2.8%
COc1ccc(NC(=O)C2=C(C)Nc3ncnn3C2c2ccccc2C(F)(F)F)c(OC)c1 (centres undefined) | -23.4% | ·
CCn1cnc2cc(NCc3nc4ccccc4n3Cc3ccccc3)ccc21 | -16.8% | -25.3%
CC(=O)c1cccc(NC(=O)C2Cc3c(-c4ccc(Cl)cc4)ccnc3O2)c1 (centres undefined) | -22.4% | ?
Cc1ccc(C(C)C)c(OCc2ccc(C(=O)Nc3ccc(S(N)(=O)=O)cc3C)o2)c1 | -26.4% | -27.3%
N#Cc1ccc(COC(=O)C2CCC(=O)N2)cc1 (centres undefined) | -16.2% | -10.0%
CC1CCCCC1NC(=O)CCn1c(=S)[nH]c2ccccc2c1=O (centres undefined) | -8.1% | i
Cc1ccc(S(=O)(=O)N(C)c2ccc(OCC(=O)NCC3(N(C)C)CCCCC3)cc2)cc1 | -18.1% | -26.2%
CCCNC(=O)CCNS(=O)(=O)c1ccc2c(c1)c(=O)n(C)c(=O)n2C | -3.3% | 2.1%
Cc1cccc(OCc2nnc(SCC(=O)N3CCN(C(=O)c4ccco4)CC3)n2C)c1C | -12.5% | -16.7%
CCOC(=O)N1CCN(C(=O)CNC(=O)c2nn(-c3ccc(OC)c(OC)c3)c(=O)c3ccccc23)CC1 | -17.8% | -10.6%
O=C(CN1C(=O)NC2(CCOc3ccccc32)C1=O)c1ccc(F)cc1 (centres undefined) | -7.7% | -12.7%
CC(C)(C)NC(=O)C(c1ccco1)N(Cc1ccc2c(c1)OCO2)C(=O)Cn1nnc2ccccc21 (centres undefined) | -12.0% | -1.2%
Nc1nc(-c2cccnc2)nc2sc3c(c12)CCCC3 | ? | -19.3%
COc1ccc(/C=C/c2ccccc2)cc1[C@H]1[C@H]2C=CC[C@@H](C)[C@@H]2C(=O)N1Cc1ccccc1 | -20.4% | -8.6%
Cc1cccc(C)c1NC(=O)C(c1ccncc1)n1c(=O)c(-c2cc3ccccc3[nH]2)nc2ccccc21 (centres undefined) | ? | ?
COc1ccc(/C=N/NC(=O)CNC(=O)COc2ccccc2)cc1 | 1.5% | -8.7%
CCC(=O)N1CCc2cc(Br)cc(S(=O)(=O)N3CCCC(C(=O)Nc4cccc(Cl)c4C)C3)c21 (centres undefined) | -12.2% | i

The list goes on.
SMILES | VACV Venus inh | VACV mCherry inh
O=C(O)CSc1nc2ccc(Cl)cc2[nH]1 | ? | ·
Cc1ccc(CN2CCNC(=O)C2CC(=O)NCC(F)(F)F)o1 (centres undefined) | -6.5% | i
CC(C)(C)[C@H]1COC(=O)[C@@H](Cc2ccc(F)cc2)C/C=C\C[C@@H](CC(=O)N[C@@H](CO)Cc2ccccc2)C(=O)N1 | ? | -11.1%
Cc1ccc(Cl)cc1OCC(=O)NCCOC(=O)Nc1sc(=S)n(C)c1C | -18.8% | -18.3%
Cc1nn2c(N3CCOCC3)cc(C(C)(C)C)nc2c1-c1ccc(Cl)cc1 | -5.5% | -16.0%
COC(=O)NN=C1CCC(c2ccccc2)CC1 (centres undefined) | -8.6% | ?
COc1ccc(C(=O)N2CCc3cc4c(cc3C2C)OCCCO4)cc1 (centres undefined) | -22.2% | -29.2%
Cc1c(C(c2ccc(Br)cc2)c2c(C)n(C)n(-c3ccccc3)c2=O)c(=O)n(-c2ccccc2)n1C | -13.4% | -12.9%
Nc1nc(NCc2ccc(F)cc2)c2[nH]cnc2n1 | -10.1% | -9.5%
CC1CCCN(CCCNC(=O)CCn2nc(-c3ccccc3)ccc2=O)C1 (centres undefined) | -10.8% | -15.0%
NCC(=O)Nc1ccc(Br)cc1 | -11.8% | i
O=C(Nc1ccc2oc(=O)ccc2c1)c1cc([N+](=O)[O-])ccc1N1CCOCC1 | -6.3% | i
O=C(/C=C/c1ccc(F)cc1)NCCNC(=O)/C=C/c1ccc(F)cc1 | -3.3% | -0.8%
Cc1ccc(S(=O)(=O)N2CCN(C(=O)COC(=O)/C=C/c3ccc(F)cc3)CC2)c(C)c1 | -15.0% | i
COc1cccc(CNC(=O)C(=O)NCC(c2ccco2)S(=O)(=O)c2cccs2)c1 (centres undefined) | -9.9% | -18.1%
Cn1c(-c2ccccc2)c(/C=N/NC(=O)c2cccnc2)c2ccccc21 | -24.3% | i
Cc1ccc(Cn2c(=N)n(CC(O)COc3ccccc3)c3ccccc32)cc1 (centres undefined) | ? | ?
Cc1ccc(NC(=O)CSCC(=O)Nc2nnc(C)s2)cc1 | -19.8% | i
O=C(COC(=O)c1ccco1)NCc1cccs1 | -1.9% | ·
COc1cccc(/C=N/NC(=O)CSc2ccccc2C)c1O | ? | ?
CCc1ccc2oc(C(=O)Nc3sc4c(c3C(=O)NC)CCCC4)cc(=O)c2c1 | -6.9% | 4.7%
COC(=O)C1=C(C)NC(C)=C(C(=O)OC)C1C(=O)OCC(=O)Nc1ccc(C(C)=O)cc1 | -4.3% | 5.3%
O=C(COC(=O)c1ccc[n+]([O-])c1)Nc1ccc([N+](=O)[O-])cc1Cl | -10.8% | -9.3%
CCC1c2ccc(C)n2CCN1C(=O)Nc1ccccc1OC (centres undefined) | 2.0% | -2.7%
CCc1nc(N2CCN(C(=O)CCl)CC2)c2c3c(sc2n1)CC(C)CC3 (centres undefined) | -27.8% | -2.8%

Some of the entries above in a different format:
Second line of a record – VACV Venus inh | VACV mCherry inh
Cc1ccc(NC(=O)CSCC(=O)Nc2nnc(C)s2)cc1
→ -19.8% | i
O=C(COC(=O)c1ccco1)NCc1cccs1
→ -1.9% | ·

Later entries
SMILES | VACV Venus inh | VACV mCherry inh
COc1ccccc1CCNC(=O)Cc1c(C)c2cc3c(C(C)(C)C)coc3c(C)c2oc1=O | -8.5% | -15.2%
Cc1ccc(NC(=O)c2cc(S(=O)(=O)N3CCCCC3)c[nH]2)cc1F | -9.4%&-4.8% | -11.5%&-12.8%
CC1(C)NC(=O)N(CC(O)COc2ccc(N3C(=O)c4ccccc4C3=O)cc2)C1=O (centres undefined) | -3.8% | -14.5%
Cc1cc(C)cc(NC(=O)[C@H](Cc2c[nH]c3ccccc23)NC(=O)[C@@H]2Cc3ccccc3CN2)c1 | -20.3% | -25.6%
CCCNC(=O)C1CCC(Cn2c(=O)c3sccc3n(CC(=O)N3CCCC(C)C3)c2=O)CC1 (centres undefined) | -14.3% | -10.2%
Cc1ccc(SCCNC(=O)c2ccc(C)c(S(=O)(=O)Nc3ccccc3C)c2)cc1 | -22.0% | -19.0%
CCOC(=O)c1cccc(OC(=O)CCNC(=O)c2ccc(Cl)cc2)c1 | -5.4% | -10.6%
CS(=O)(=O)c1ccc(C2=C(CNC(=O)c3ccc([N+](=O)[O-])cc3)[C@H]3CC[C@@H](C2)N3Cc2ccccc2)cc1 | -10.0% | ?
COc1ccc(Cl)cc1NC(=O)CCc1nnc2ccc(N3CCN(C)CC3)nn12 | 0.0%[7.34 µM] | i[7.34 µM]
COc1ccc(N(CC(C)C)S(=O)(=O)c2nnc(NC(=O)CC(C)C)s2)cc1 | -6.8% | -17.4%
COc1ccc(N2CCN(C(=O)NC3CC(=O)N(c4ccc(OC)cc4)C3)CC2)cc1 (centres undefined) | -6.5% | -10.1%
CC(C)N(C)S(=O)(=O)c1ccc(Cl)c(C(=O)O)c1 | -4.5% | i
Cc1ccc(CNC(=O)/C=C/c2ccc(S(=O)(=O)N3CCOCC3)cc2)cc1 | -4.0% | i
Cc1nn(CC(=O)N(C)c2c(N)n(Cc3ccccc3)c(=O)[nH]c2=O)c(C)c1[N+](=O)[O-] | -7.8% | i
Cc1oc(-c2ccc(C(=O)NCCC(C)C)cc2)nc1CN1CCc2ccccc21 | -13.7% | -18.9%
CCCCCCN1CCN(C2CN(Cc3cn(CCCCCC)nn3)S(=O)(=O)C2)CC1 (centres undefined) | -2.2% | -6.2%
Cc1cccc(/C=N/Nc2ccc3ccccc3n2)c1 | -10.8% | ?
O=C(CN(c1cccc([N+](=O)[O-])c1)S(=O)(=O)c1ccccc1)NCc1cccnc1 | -4.4% | -15.3%
Cc1cccc(NC(=O)CCCn2c(=S)[nH]c3ccccc3c2=O)c1 | -16.0% | -16.1%
COc1ccc(CCNC(=O)C(C)n2c(=O)cc(C(F)(F)F)c3c(C)nn(C)c32)cc1OC (centres undefined) | 2.7% | -11.9%
CCSc1nnc(NC(=O)[C@@H](NC(=O)c2ccccc2)C(C)C)s1 | -7.5% | i
COC(CNC(=O)c1ccc(CS(=O)(=O)c2ccccc2)o1)OC | -3.8% | -8.7%
CC(OC(=O)c1cc(S(=O)(=O)N(C)c2ccccc2)ccc1Cl)C(=O)Nc1ccc2c(c1)OCCO2 (centres undefined) | -12.9% | -10.5%
C/C(=N\NC(=O)c1cc(C(C)(C)C)[nH]n1)C12CC3CC(CC(C3)C1)C2 | -9.3% | -7.1%
COc1ccc(N2CSC(=S)N(c3ccc(OC)cc3)C2)cc1 | -9.7% | -7.4%

Next part:
SMILES | VACV Venus inh | VACV mCherry inh
O=C(NCc1ccccc1)c1cccc2c(-c3cccnc3)coc12 | 0.1% | 7.7%
COc1ccc([N+](=O)[O-])cc1N(CC(=O)NC1CCCCC1)S(C)(=O)=O | 4.7% | i
COc1ccc(C(=O)NCc2ccc3c(c2)CCN3C(=O)c2ccc(F)cc2)cc1 | -11.0% | -2.5%
CCOc1cc(/C=N/Nc2cccc(C(=O)O)c2)ccc1OCC(=O)N1CCCCC1 | -6.0% | -5.6%
COc1ccc2nc(NC(=O)C3CCCN(S(=O)(=O)c4cccc5nsnc45)C3)sc2c1 (centres undefined) | ? | -22.1%
O=C(COC(=O)c1cccs1)NC1CCCCC1 | -9.6% | -11.2%
CCc1cc2c(SCC(=O)c3ccc(Cl)s3)ncnc2s1 | -7.2% | i
COc1ccc(CCN=CC2=C(O)CCCC2=O)cc1OC | -7.9% | -15.7%[1.46 µM]
O=C(COC(=O)c1ccc(O)cc1O)N=c1sccn1Cc1ccccc1Cl | -22.6% | ?
C=CCn1c(SCC(=O)Nc2nnc(C)s2)nnc1-c1cccnc1 | 4.2% | -0.4%
Cc1cccc(C(=O)N[C@H](C(=O)OCC(=O)NC(=O)c2cccn2C)C(C)C)c1 | 2.8% | i
Cc1ccccc1OCCn1c(-c2ccc(Cl)cc2)nc2ccccc2c1=O | 6.3% | -3.9%
COc1ccc(NC(=O)CN2C(=O)C(C)SC(C)C2=O)cc1 (centres undefined) | -14.7% | i
C/C(CC(=O)Nc1ccc([N+](=O)[O-])cc1)=N/NC(=O)C1CC12CCC2 (centres undefined) | -7.9% | -15.3%
Cc1ccccc1Cn1c(=O)n(C)c(=O)c2sccc21 | -10.3% | -20.4%
Cc1ccc(NC(=O)Cc2ccc(-n3cccc3)cc2)c(C)c1 | 2.5% | 4.1%
Cc1ccc(N(C(=O)c2snc(C(N)=O)c2N)C(CC(C)C)C(=O)NC2CCCC2)cc1 (centres undefined) | 2.9% | i
COc1ccc(N(C(=O)CNC(=O)c2ccco2)C(C(=O)NC2CCCC2)c2ccco2)cc1 (centres undefined) | 4.7% | 5.0%
COc1ccc(Cn2c(=O)[nH]c3cc(C(=O)N4CCN(c5cc(C)ccc5C)CC4)ccc3c2=O)cc1 | -22.3% | ?
Cc1ccc(/C=C/C(=O)Nc2ccc([N+](=O)[O-])c(NC(=O)/C=C/c3ccc(C)o3)c2)o1 | -19.1% | i
COc1ccc(-c2csc(N(CCCN(C)C)C(=O)c3ccc(C(C)(C)C)cc3)n2)cc1 | -19.4% | ?
COc1ccc(Oc2ccc(/C=C/C(=O)c3ccc(O)cc3)cc2[N+](=O)[O-])cc1 | ? | ?
Cc1c(NC(=O)/C(C#N)=C/C2CC=CCC2)c(=O)n(-c2ccccc2)n1C (centres undefined) | -6.6% | i
CCC(C)(C)n1nnnc1C(c1ccc(F)cc1)N1CCN(C(=O)c2ccco2)CC1 (centres undefined) | -5.4% | -11.9%

Part of the list above, with values under each structure:
Order of results: VACV Venus inh, VACV mCherry inh
- O=C(COC(=O)c1ccc(O)cc1O)N=c1sccn1Cc1ccccc1Cl
    -22.6%, ?
- Cc1ccc(/C=C/C(=O)Nc2ccc([N+](=O)[O-])c(NC(=O)/C=C/c3ccc(C)o3)c2)o1
    -19.1%, i
- Cc1ccccc1Cn1c(=O)n(C)c(=O)c2sccc21
    -10.3%, -20.4%
- Cc1cccc(C(=O)N[C@H](C(=O)OCC(=O)NC(=O)c2cccn2C)C(C)C)c1
    2.8%, i
- Cc1c(NC(=O)/C(C#N)=C/C2CC=CCC2)c(=O)n(-c2ccccc2)n1C (centres undefined)
    -6.6%, i
- Cc1ccc(N(C(=O)c2snc(C(N)=O)c2N)C(CC(C)C)C(=O)NC2CCCC2)cc1 (centres undefined)
    2.9%, i
- O=C(NCc1ccccc1)c1cccc2c(-c3cccnc3)coc12
    0.1%, 7.7%
